Rce1 inhib: inhibitors of yeast Ras-converting enzyme; yeast membranes, quenched prenylated peptide cleavage fluorescence; 290,000 tested, 0.27% active; Q03530; calls only;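 active = fall in fluorescence gain of 50% or more versus controls, with final raw signal at or below 3038400; inconclusive = same 50% fall but final raw signal above 3038400; inactive = fall in fluorescence gain under 50%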;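 also: plate controls were neutral control wells for no effect and wells lacking membranes for full effect; tested at 10 µM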
Target sequence (Q03530 whole entry, looked up): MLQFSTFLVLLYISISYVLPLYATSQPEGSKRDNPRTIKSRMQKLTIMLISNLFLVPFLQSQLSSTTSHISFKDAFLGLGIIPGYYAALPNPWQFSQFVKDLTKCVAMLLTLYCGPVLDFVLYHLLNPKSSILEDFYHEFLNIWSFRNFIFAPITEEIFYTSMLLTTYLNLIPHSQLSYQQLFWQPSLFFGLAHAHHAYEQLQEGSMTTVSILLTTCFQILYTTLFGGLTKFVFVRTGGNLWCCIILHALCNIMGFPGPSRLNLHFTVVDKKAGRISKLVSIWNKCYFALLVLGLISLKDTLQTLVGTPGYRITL
UUG fidelity: yeast start codon fidelity modulation | S. cerevisiae UUG-firefly luciferase reporter, luminescence/redox ratio | activity score, % at 18.7 µM | 350,000 tested, 0.13% active | AID 602363;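 active = replicate mean at a twofold rise or more, about +100% in these data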;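 also: firefly luciferase made from a UUG start codon reports start codon fidelity; reporter light over untreated wells divided by growth signal over untreated wells; some hits fall short of that in this replicate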
CSC inhib: blocks cancer stem cells; AID 2717; inhibition, % at 7.5 µM; 300,000 tested, 1.1% active; cancer stem cell-like cells viability, luminescence;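 active = mean at 75% or more and at least half the replicates too; inconclusive = mean and replicates disagree; tested in HMLE shEcad cells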;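 also: 0% = median of negative and 100% = median of positive control wells; the first replicate is given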
Env fusion inh: HIV envelope-mediated fusion inhibition | AID 651610 | 360,000 tested, 1.1% active | HeLa-JRFL Env/CEM21 cell fusion, luciferase | inhibition, % at 12.3 µM;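 active = mean replicate inhibition score of at least 50 and every replicate individually at or above 50; inconclusive = only one of the two criteria met; inactive = mean below 50 and not all replicates reaching 50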;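 also: 0% = plate neutral controls and 100% = maraviroc near 300 nM; one replicate is shown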
PABP FP inh: blocks human PABP binding to poly(A) RNA; P11940; inhibition, % at 35 µM; 290,000 tested, 1% active; fluorescence polarization;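 active = 50% or more with normal probe brightness, or confirmed in later tests; inconclusive = above 50% with abnormal brightness, or retests that disagree; inactive = below 50% or failed in later tests; about a fifth of its hits are not listed in these tables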;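 also: calls also rest on retests at 20 µM and on dose response follow-up; controls were probe without protein and protein plus probe with vehicle; some compounds called inactive have numbers as strong as hits; many hits fall short of the cut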
Target sequence (P11940 whole entry, looked up): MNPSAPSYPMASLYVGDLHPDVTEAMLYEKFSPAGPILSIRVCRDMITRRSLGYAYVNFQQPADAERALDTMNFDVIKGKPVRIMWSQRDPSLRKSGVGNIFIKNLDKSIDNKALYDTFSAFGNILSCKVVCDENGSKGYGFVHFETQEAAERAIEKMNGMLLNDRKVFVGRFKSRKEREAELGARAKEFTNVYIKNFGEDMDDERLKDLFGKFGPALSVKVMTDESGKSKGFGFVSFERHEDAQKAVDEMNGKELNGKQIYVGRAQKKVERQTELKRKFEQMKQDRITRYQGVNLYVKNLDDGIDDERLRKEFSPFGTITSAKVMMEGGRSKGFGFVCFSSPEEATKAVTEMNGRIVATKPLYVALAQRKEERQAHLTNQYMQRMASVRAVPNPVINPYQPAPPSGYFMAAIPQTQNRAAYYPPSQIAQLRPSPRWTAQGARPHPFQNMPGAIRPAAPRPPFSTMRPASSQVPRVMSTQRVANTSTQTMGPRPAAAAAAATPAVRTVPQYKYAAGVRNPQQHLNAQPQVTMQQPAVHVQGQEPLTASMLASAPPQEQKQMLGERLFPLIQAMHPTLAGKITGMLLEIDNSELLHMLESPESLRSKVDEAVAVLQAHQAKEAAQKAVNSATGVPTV
eIF4H FP inh: inhibitors of RNA binding by human eIF4H | eIF4H fluorescence polarization binding assay | inhibition, % at 35 µM | 290,000 tested, 0.94% active | Q15056;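 active = 50% or more with normal probe brightness, or confirmed in later tests; inconclusive = above 50% with abnormal brightness, or retests that disagree; inactive = below 50% or failed in later tests; about a fifth of its hits are not listed in these tables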;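 also: calls also rest on retests at 20 µM and on dose response follow-up; 0% = protein and probe with vehicle and 100% = probe without protein; strong numbers were not always called active; many hits fall short of the cut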
MT1-MMP act inh: inhibitors of human MT1-MMP activation | HT1080 RFP-PRO-GFP cells, GFP/RFP ratio fluorescence, overnight; percent of plate control window, DMSO zero | GFP/RFP ratio change, % at 20 µM | 360,000 tested, 0.061% active;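 active = GFP/RFP ratio change of at least 30% with cell ATP level not reduced by more than half and red fluorescence within 50% of control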; also: strong numbers were not always called active
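Material: RFP-PRO-GFP reporter HT1080 cells. Dosing: single-point 20 µM compound, 1% DMSO. Controls: DMSO and RFP-L50D-GFP cell wells. Timing: cells overnight before dosing, compound overnight, 37 °C, 5% CO2. Measure: GFP/RFP fluorescence ratio.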
MT1-MMP act inh RFP: also measured in MT1-MMP act inh; calls as there; RFP signal change, %; measured here: RFP expression control read;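 0 = vehicle wells; hits needed this value within 50% of zero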
* marks the source's active call; other numbers are inactive results; i = inactive; ? = inconclusive; · = no result given. Some of the compounds tested; count on the stated rates, not on these rows.

The line under a structure holds: Rce1 inhib	UUG fidelity	CSC inhib	Env fusion inh	PABP FP inh	eIF4H FP inh	MT1-MMP act inh	MT1-MMP act inh RFP
[1] O=C(Nc1ccc2c(c1)OCCO2)C(=O)c1c[nH]c2ccccc12
    i	-32	107*	i	5	-2	6	-8
[2] Cc1cc(C(=O)CSc2ncccn2)c(C)n1-c1cccc(F)c1
    i	-4	4	-110	13	11	-3	-4
[3] COc1ccc(S(=O)(=O)N2CCCCC2)cc1NC(=O)CN(C)C1CCCCC1
    i	-10	-2	24	-8	-5	-6	-10
[4] CCC(=O)NC(=S)Nc1ccc(S(=O)(=O)NC2CCCCC2)cc1
    ·	-2	5	19	-7	1	1	-6
[5] O=C(N/N=C/C1CC2CCC1C2)C1CC1 (stereo unspecified)
    ·	-1	-3	-6	-13	-6	0	2
[6] Cc1ccc(-c2nnn(CC(=O)NCCc3ccc4c(c3)OCO4)n2)o1
    i	12	·	·	1	9	5	1
[7] O=C(COc1ccc(S(=O)(=O)N2CCCCC2)cc1)N1CCCCCC1
    i	21	-7	·	-9	-2	6	0
[8] CCS(=O)(=O)Nc1cc(OC)c(OC)cc1Cc1nccc2cc(OC)c(OC)cc12
    i	-3	-10	15	-5	-1	10	2
[9] COC(=O)C1SCC2C(=O)N(Cc3ccc(Cl)cc3)CC(=O)N21 (stereo unspecified)
    i	·	-11	11	10	-1	0	0
[10] COc1ccc(Br)cc1S(=O)(=O)N1CC(C)OC(C)C1 (stereo unspecified)
    i	-10	-10	1	-6	-6	1	-1
[11] CCCn1c(=O)[nH]c(=O)c2c1nc(-c1ccc(OC(F)(F)C(F)C(F)(F)F)cc1)n2CCOC (stereo unspecified)
    i	0	-6	·	9	-5	1	-9
[12] COc1ccc(/C=C/c2nc3cc(-c4ccccc4)ccc3o2)cc1O
    i	-18	102*	·	9	-4	-12	-16
[13] Cc1ccc2cc(CN(CC3CCCO3)S(=O)(=O)c3c(C)ccc4nsnc34)c(=O)[nH]c2c1 (stereo unspecified)
    i	-17	2	5	2	7	1	5
[14] O=C(NCc1cccnc1)C1CCC(CNS(=O)(=O)c2ccc(Cl)cc2)CC1 (stereo unspecified)
    i	·	27	2	19	-13	0	-2
[15] Cc1csc(NC(=O)c2cc(-c3ccncc3)nc3ccccc23)n1
    i	·	8	-5	-10	3	-8	-2

In the list so far, 2 have a Cl atom.
The line under a structure holds: Rce1 inhib	UUG fidelity	CSC inhib	Env fusion inh	PABP FP inh	eIF4H FP inh	MT1-MMP act inh	MT1-MMP act inh RFP
[9] COC(=O)C1SCC2C(=O)N(Cc3ccc(Cl)cc3)CC(=O)N21 (stereo unspecified)
    i	·	-11	11	10	-1	0	0
[14] O=C(NCc1cccnc1)C1CCC(CNS(=O)(=O)c2ccc(Cl)cc2)CC1 (stereo unspecified)
    i	·	27	2	19	-13	0	-2

The listing continues.
The line under a structure holds: Rce1 inhib	UUG fidelity	CSC inhib	Env fusion inh	PABP FP inh	eIF4H FP inh	MT1-MMP act inh	MT1-MMP act inh RFP
[16] O=C(NCCOc1ccccc1Cl)c1cc(F)c(F)cc1Cl
    i	-17	-14	·	6	-9	3	1
[17] CC1CCN(C(C)C(=O)Nc2ccc(S(=O)(=O)N3CCCC3)cc2)CC1 (stereo unspecified)
    ·	-31	·	0	·	·	-1	-2
[18] Cc1ccc2nc(-c3ccc(NC(=O)CCN4C(=O)c5ccccc5C4=O)cc3)sc2c1
    i	-22	28	-217	-10	-9	2	1
[19] CCOC(=O)C1=C(c2ccccc2)NC(=S)NC1c1ccc(Cl)c([N+](=O)[O-])c1 (stereo unspecified)
    i	·	-3	·	18	7	·	·
[20] CC(=O)c1c(C)nc2ccccn12
    i	-5	-16	·	4	-10	-4	4
[21] CCCS(=O)(=O)NC(=O)C1(C)CCCN(C(=O)c2cc(OC)c(OC)c(OC)c2)C1 (stereo unspecified)
    ·	-7	·	-32	·	·	3	13
[22] COc1ccccc1NC(=O)Nc1ccnn1C1CCCCC1
    i	·	-1	·	5	-10	12	4
[23] O=C(CNC(=O)c1ccc(Br)o1)NCc1ccc2c(c1)OCO2
    i	-7	-13	·	5	3	6	3
[24] COc1ccc(C2=NS(=O)(=O)N(C)C(C(=O)Nc3ccc(F)cc3F)=C2)cc1
    i	10	7	·	-18	-10	-2	-1
[25] COc1ccc(OC)c(C(=O)c2coc3cc(Br)c(O)c(Br)c23)c1
    i	·	2	10	·	·	5	-2
[26] CCOC(=O)C1C(=O)C=C(c2ccc(C)cc2)CC1c1cccc([N+](=O)[O-])c1 (stereo unspecified)
    i	-16	27	-7	-1	-3	-3	-9
[27] O=C(COc1cc(Cl)c(Cl)cc1Cl)NC(=O)Nc1ccc2c(c1)OCCO2
    i	·	-20	·	8	-1	5	8
[28] CN(c1ccccc1)S(=O)(=O)c1cccc(C(=O)Nc2nn[nH]n2)c1
    ·	-5	-15	3	1	-2	-1	2
[29] Cc1cccn2c(N)c(-c3ccccc3)nc12
    i	-5	9	·	·	·	-1	4
[30] CC1CCCCC1NC(=O)COC(=O)c1ccc2ccccc2n1 (stereo unspecified)
    i	-14	-12	15	?	30	-5	-2
[31] O=c1c2ccccc2nc(-c2ccc(F)cc2)n1NCc1ccccc1O
    i	·	-1	-8	5	-8	1	1
[32] CC1(C(=O)Nc2ccc(Cl)c(Cl)c2)CCN1C(=O)Cc1cccc2ccccc12 (stereo unspecified)
    ·	-10	·	-9	·	·	1	3
[33] O=C(C(=O)N1CC=C(c2ccccc2)CC1)c1c[nH]c2ccccc12
    i	·	1	-2	-16	-8	-24	0
[34] CCN1CCN(c2nc(Nc3ccc(OC)cc3)nc(N)c2[N+](=O)[O-])CC1
    i	-13	-1	13	2	-6	2	2
[35] O=C(CCSc1ccc(Br)cc1)c1ccc(O)cc1
    i	·	33	-1	-7	-4	-1	0
[36] CCCCNc1cc(=O)n(C)c(=O)[nH]1
    i	-8	10	-21	-4	-6	-2	2
[37] COc1ccccc1CN(C)C(=O)c1cc(C)nc2ccccc12
    i	-6	·	7	0	0	-1	-7
[38] CCOC(=O)C(NC(=O)c1ccc(OC)cc1)(Nc1cc(C)on1)C(F)(F)F (stereo unspecified)
    i	-14	-15	·	-5	3	1	6
[39] CCCCSc1nnc(NC(=O)CCc2ccccc2)s1
    i	-14	1	-44	6	-11	-2	-5
[40] CCC(=O)NNc1cccc(Cl)n1
    i	-19	7	·	-1	-2	0	2
[41] CCCc1nc2ccccc2c(=O)n1-c1ccc(C(=O)OCC)cc1
    i	·	-7	19	3	6	1	-4
[42] O=S(=O)(Nc1ccc(-c2nc3cccnc3s2)cc1)c1cccs1
    i	-23	·	-4	1	-3	6	-1
[43] COc1ccccc1C(=O)NNC(=O)c1cccc([N+](=O)[O-])c1
    i	·	0	-4	9	-7	1	2
[44] COc1ccc(C(=O)NC(=S)NNC(=O)c2ccc(O)cc2)cc1[N+](=O)[O-]
    i	-32	-5	-3	-1	8	2	5
[45] COc1ccc(C(=O)OCCc2cc3ccccc3c(=O)o2)cc1
    ·	-13	19	1	·	·	4	-2
[46] Cc1[nH]n(C(N)=S)c(=O)c1N=Nc1cc(-c2ccc(Br)cc2)[nH]n1
    i	-26	4	18	14	21	7	-4
[47] CC(C)C1CC(C(=O)Nc2ccccc2)C(=O)O1 (stereo unspecified)
    i	-2	-8	-11	·	·	-6	-1
[48] Cc1ccc(CSC(Nc2ccc(F)cc2)=C(C#N)C#N)cc1
    i	·	7	68*	-6	-2	-36	-35
[49] Cc1noc(C)c1COc1ccccc1C(=O)NCCc1ccc(F)cc1
    ·	7	·	5	·	·	-9	-3
[50] CCN1CCN(C(=O)c2ccc(COc3cccc(Cl)c3)o2)CC1
    i	-19	45	14	1	-7	0	4
[51] O=C(CSc1nc(O)c(-c2ccccc2)c(=O)[nH]1)N1CCOCC1
    i	6	-4	-6	1	-3	-2	3
[52] FC(F)Oc1ccc(NC(=S)NCC2COc3ccccc3O2)cc1 (stereo unspecified)
    i	·	14	-89	-2	-8	0	-4
[53] Nc1ccc(S(=O)(=O)Nc2ccccn2)cc1
    i	-12	-16	12	12	5	4	1
[54] CCc1c(C(=O)O)[nH]c2ccc(Br)cc12
    i	-18	-11	·	5	-4	6	5
[55] CCOc1ccc(S(=O)(=O)NCCC2=CCCCC2)c2ccccc12
    i	-10	·	38	-3	0	-2	-6
[56] CCOC(=O)c1cc(-c2ccccc2)n(CC2CC(c3ccc(OC)cc3)=NO2)n1 (stereo unspecified)
    ?	10	3	9	-18	-5	-3	-7
[57] CCN(CC1CCCO1)C(=O)CCc1nnc(CCc2ccccc2OC)o1 (stereo unspecified)
    i	-1	-3	-27	-1	-2	-2	2
[58] Nc1ccc(C(=O)NCCCCCCNC(=O)c2ccc(N)cc2)cc1
    i	-25	-4	-4	8	7	-1	1
[59] COc1ccc2c(c1)O[C@@H](c1cccc(C(F)(F)F)c1)[C@H](OC(=O)Nc1ccc(OC(F)F)cc1)C2=O
    ·	·	25	·	8	9	·	·
[60] CCC(=O)N1CCc2cc(Br)cc(S(=O)(=O)NCc3ccccc3OC)c21
    i	-7	17	-6	-2	-10	2	-3
[61] Cn1cc(S(=O)(=O)N2CCN(c3cccc(C(F)(F)F)c3)CC2)c(=O)n(C)c1=O
    i	-3	-16	24	2	-3	4	-3
[62] O=C(CCOc1ccccc1)Nc1ccc(Cl)c(S(=O)(=O)N2CCOCC2)c1
    ·	0	·	1	·	·	0	-8
[63] CCCn1c(N)c(NCCN2CCOCC2)c(=O)n(CC(=O)NCc2ccccc2)c1=O
    i	·	·	-1	0	-5	3	2
[64] CSCCC(NC(=O)c1ccccc1)C(=O)NCc1ccco1 (stereo unspecified)
    i	-16	-4	7	1	2	1	-1
[65] O=C(CSc1nn(-c2ccc(F)cc2)c(=S)s1)NC1CCS(=O)(=O)C1 (stereo unspecified)
    i	-13	-2	0	-4	-10	-1	0
[66] Cc1ccc(NC(=O)CN2C(=O)S/C(=C/c3ccncc3)C2=O)cc1
    ·	-6	5	13	0	5	0	-5
[67] Cc1ccc(N2CC(C(=O)N/N=C/c3c(F)cccc3Cl)CC2=O)cc1 (stereo unspecified)
    i	2	-11	·	0	1	-1	-3
[68] CCN1CCN(CCC(=O)Nc2ccc(Br)cc2)CC1
    i	·	-7	-2	18	20	4	1
[69] CCOC(=O)C1=C(C)N(C)C(=O)NC1c1c(O)ccc2ccccc12 (stereo unspecified)
    i	6	-9	1	0	2	-3	0
[70] CN(C(=O)CS(=O)(=O)c1cn(CC(=O)N2CCCCC2)c2ccccc12)c1ccccc1
    i	9	-14	2	-2	-4	-2	1
[71] CCCn1nc(C(=O)Nc2nc(-c3ccccn3)cs2)c2ccccc2c1=O
    ·	-25	·	6	·	·	6	3

Bioassay records as filed in PubChem BioAssay.
